MenB inh: M. tuberculosis MenB inhibitors, primary screen, biochemical, absorbance; AID 540299, 2011; 1,4-dihydroxy-2-naphthoyl-CoA synthase (Mycobacterium tuberculosis (strain ATCC 25618 / …; inhibition, %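 (about 12 µg/mL by stock and volumes)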; 0.43% of 100,000 active; MenB enzyme assay, absorbance read-out; some hits fall short of the stated cut;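 active = mean of two replicates above 30%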;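 also: 0% = no compound and 100% = wells with inactive enzyme; the first replicate is given; strong numbers were not always called active; inactives centre near -10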
MbtI inh: MbtI salicylate synthase inhibitors, primary screen, biochemical, fluorescence intensity. AID 493033, 2011. P9WFX0. purified MbtI enzyme, fluorescence intensity read-out. 0.89% of 100,000 active. inhibition, %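 (about 17 µg/mL by stock and volumes)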;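 active = above 50% in both replicates, above 80% if mildly self-fluorescent; inactive = the rest, strongly fluorescent compounds included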;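 also: 0% = mean of negative and 100% = mean of positive controls; one replicate is shown; some compounds called inactive have numbers as strong as hits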
Target sequence (P9WFX0 whole entry, looked up): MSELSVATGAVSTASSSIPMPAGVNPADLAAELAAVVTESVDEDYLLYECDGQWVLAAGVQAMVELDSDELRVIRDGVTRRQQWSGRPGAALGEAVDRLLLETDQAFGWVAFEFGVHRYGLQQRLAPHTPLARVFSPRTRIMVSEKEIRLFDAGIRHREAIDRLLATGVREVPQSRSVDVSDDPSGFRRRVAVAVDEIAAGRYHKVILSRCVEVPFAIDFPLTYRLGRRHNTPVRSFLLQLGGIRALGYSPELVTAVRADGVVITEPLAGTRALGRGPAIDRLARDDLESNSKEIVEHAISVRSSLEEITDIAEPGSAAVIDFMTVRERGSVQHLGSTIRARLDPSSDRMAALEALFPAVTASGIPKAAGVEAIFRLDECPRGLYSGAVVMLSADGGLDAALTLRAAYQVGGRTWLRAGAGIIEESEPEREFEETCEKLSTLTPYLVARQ
PV pol inh: poliovirus RdRp elongation inhibitors, primary screen, biochemical, fluorescence polarization, total intensity | poliovirus polymerase elongation; active compounds read low | 0.66% of 150,000 active | % elongation, % (compound at 16.7 µg/mL) | Genome polyprotein (Poliovirus type 1 (strain Mahoney)), P03300 | AID 588519, 2011; in the data active = % elongation below about 90%; also: some results filed as inactive read as strong as hits
Target sequence (P03300 1749-2209 limits assumed): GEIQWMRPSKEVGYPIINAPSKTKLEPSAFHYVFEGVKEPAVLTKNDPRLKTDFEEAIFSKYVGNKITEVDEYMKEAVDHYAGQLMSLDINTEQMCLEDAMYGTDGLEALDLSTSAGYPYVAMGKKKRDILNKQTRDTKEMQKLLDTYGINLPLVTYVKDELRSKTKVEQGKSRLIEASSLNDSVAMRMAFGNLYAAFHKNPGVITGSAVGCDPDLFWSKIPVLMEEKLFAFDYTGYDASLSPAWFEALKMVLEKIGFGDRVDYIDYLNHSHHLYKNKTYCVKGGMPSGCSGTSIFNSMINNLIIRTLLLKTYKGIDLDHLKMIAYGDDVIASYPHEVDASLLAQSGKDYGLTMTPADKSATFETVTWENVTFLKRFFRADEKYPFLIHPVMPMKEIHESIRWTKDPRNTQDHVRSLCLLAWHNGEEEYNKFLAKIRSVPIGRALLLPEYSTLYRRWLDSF
PV pol inh intensity: also measured in PV pol inh; calls as there; % elongation; measured here: total intensity read-out; formula for this scale not given here;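 total fluorescence in place of polarization; lower means less elongation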
The depositor's hits bear a star; x = not tested or not shown.

no.	structure	MenB inh	MbtI inh	PV pol inh	PV pol inh intensity
1	CCOC(=O)c1c(C)[nH]c(C(=O)CSc2nc3ccccc3o2)c1C	-11	-5	103	105
2	O=C(COc1ccccc1)OCCN1CCCC1=O	x	-8	101	98
3	Cc1ccc(S(=O)(=O)NC(Cc2ccccc2)C(=O)NN)cc1 (stereo unspecified)	-5	-5	99	105
4	CC1CCC/C(=C/Nc2ccc3c(c2)OCO3)C1=O (stereo unspecified)	-91	-207	103	110
5	CN1/C(=C2/SC(=S)N(N)C2=O)Sc2ccccc21	7	8	101	107
6	O=C(Oc1ccccc1)C(c1ccccc1)c1ccccc1	-6	-2	101	105
7	Cn1c(C2CC(=O)N(CCc3ccccc3)C2)nc2ccccc21 (stereo unspecified)	-46	-3	102	102
8	CC1CCCC(C)N1C(=O)CSc1nc2ccccc2s1 (stereo unspecified)	x	2	102	96
9	CC1(C)C2CCC1(C)C(OC(=O)CSc1ncn[nH]1)C2 (stereo unspecified)	-26	-16	103	102
10	COc1ccc(-c2cc(C(=O)Nc3cc(Cl)ccc3OC)c3ccccc3n2)cc1	-3	117	101	107
11	COC(CNC(=O)c1ccc2c(c1)C(=O)N(CCc1ccccc1)C2=O)OC	-29	3	104	107
12	Nc1ccc(N2CCCCC2)cc1	x	-1	102	104
13	CCOC(=O)c1ccc(S(=O)(=O)NNS(=O)(=O)c2ccc(C)cc2)cc1	-8	-5	103	107
14	COc1ccc(N/C=C/C(=O)c2ccc3c(c2)OCO3)cc1OC	-85	7	127	112
15	Cc1cn2c(=O)c(C(=O)NCCCN3CCN(CCCNC(=O)c4cnc5sc(C)cn5c4=O)CC3)cnc2s1	4	38	99	106
16	C=CCn1c(-c2ccncc2)nn(CN2CCCC(C(=O)OCC)C2)c1=S (stereo unspecified)	-10	8	107	108
17	CCOc1ccc(C(=O)O)o1	-14	9	103	103
18	O=C(NCc1ccccc1)C(Cc1ccccc1)NS(=O)(=O)c1cccc2nsnc12 (stereo unspecified)	-1	5	101	100
19	COc1ccc(NC(=O)N2c3ccccc3Sc3ccccc32)cc1	-22	-7	102	105
20	COc1ccc(-c2csc(NC(=O)C3CCCCC3)n2)cc1	x	-4	103	105
21	CC(C)N1CC(COc2ccc(F)cc2)OC1=O (stereo unspecified)	-6	-4	102	104
22	CC1=C(C(=O)Nc2cccc3ccccc23)C2(CCN(C(C)C)CC2)OC1=O	-28	-16	100	101
23	CCOC(=O)CNc1cccc(Cl)c1	-51	4	100	100
24	COc1ccc(-n2cnc3sc4c(c3c2=O)CCCC4)cc1	-32	-7	102	102
25	Nc1nc2ccccc2n1Cc1ccc(Cl)cc1	x	-1	103	104

Structural class: the entries above containing an aryl thioether with sulfur outside any ring (3)
no.	structure	MenB inh	MbtI inh	PV pol inh	PV pol inh intensity
1	CCOC(=O)c1c(C)[nH]c(C(=O)CSc2nc3ccccc3o2)c1C	-11	-5	103	105
8	CC1CCCC(C)N1C(=O)CSc1nc2ccccc2s1 (stereo unspecified)	x	2	102	96
9	CC1(C)C2CCC1(C)C(OC(=O)CSc1ncn[nH]1)C2 (stereo unspecified)	-26	-16	103	102

The results go on:
no.	structure	MenB inh	MbtI inh	PV pol inh	PV pol inh intensity
26	CCN(Cc1ccccc1)S(=O)(=O)c1ccc2oc(C(=O)O)c(C)c2c1	-29	-16	99	103
27	N#CC(C#N)=Cc1cn(CCCOc2ccccc2Cl)c2ccccc12	6	-5	100	102
28	COc1cc2c(cc1OC)C(C(=O)Nc1cc(C)c(OC)c(C)c1)CC(=O)N2 (stereo unspecified)	-29	5	101	103
29	O=C(c1ccccc1)N(Cc1ccco1)C1CCS(=O)(=O)C1 (stereo unspecified)	0	0	106	108
30	N#CCN(CC#N)S(=O)(=O)c1ccccc1	-6	-1	105	101
31	Cc1cc(NC(=O)COc2ccccc2)n(-c2ccccc2)n1	x	-9	102	104
32	N/C(COc1ccccc1)=N\O	13	-5	104	108
33	O=C1C=CC(=O)C(CCCCCCC2=CC(=O)C=CC2=O)=C1	11	96*	101	96
34	CCOC(=O)CSc1nc2c(c(=O)n1-c1ccccc1)C(=O)C1COC(C)(C)CC1=N2 (stereo unspecified)	0	-21	100	102
35	O=C1NCC(=O)N2CCCC12 (stereo unspecified)	-14	-6	102	105
36	COc1cc(Cl)c(C)cc1NC(=S)N(CCN1CCCCCC1)Cc1ccco1	-22	6	101	100
37	Cc1oc(-c2cccc(C(F)(F)F)c2)cc1C(=O)NC(C)C	-9	-3	102	101
38	COc1cc(OC)c(NC(=O)CN2CC(c3ccccc3)CC2=O)cc1Cl (stereo unspecified)	8	-2	98	106
39	CCCN1CCC(NC(=O)C2CCN(C(C)=O)CC2)CC1	-15	-17	100	100
40	C/C(CCc1ccc2c(c1)OCO2)=N\NC(=O)c1cc2c3ccccc3n(C)c2s1	-2	45	112	120
41	CCC(C)N1CCN(Cc2cc(OC)c(OC)cc2OC)CC1 (stereo unspecified)	37*	4	102	105
42	CCCCOC(=O)c1ccc(NC(=O)CSCc2n[nH]c(=O)[nH]2)cc1	-11	-21	100	102
43	CC1CCc2cc(F)ccc2N1C(=O)C12CCC(C)(C(=O)C1)C2(C)C (stereo unspecified)	-24	-16	102	101
44	O=C(NC1CCCC1)c1cc2ccccc2oc1=O	-7	-121	102	101
45	Cc1nc2c3c(-c4ccccc4)nc(N4CCCCCC4)nc3nn2c(C)c1CCC(=O)O	-47	12	97	102
46	O=C(COc1ccccc1/C=C1\N=C2CCCCCN2C1=O)N1CCCC1	1	-1	x	x
47	CCC(C(=O)Nc1ccccn1)c1ccccc1 (stereo unspecified)	-20	-1	101	102
48	CCOC(=O)C1(C(F)(F)F)N=C(N2CCOCC2)Oc2c1c(C)nn2-c1ccccc1 (stereo unspecified)	-2	-1	101	105
49	COc1ccc(C(=O)N2CCc3cc(OC)c(OC)cc3C2C)c(OC)c1 (stereo unspecified)	-10	3	100	100
50	Cc1ccc2c(c1)cc(CN(Cc1ccco1)C(=O)c1ccccc1)c1nnnn12	33*	0	102	103
51	CCOC(=O)C(C#N)c1ccccn1 (stereo unspecified)	-49	13	99	102
52	COc1ccc(-n2cnc3cc(NC(=O)c4ccco4)ccc32)cc1	-6	14	101	101
53	COc1cc(-c2nc3ccccn3c2NC2CCCC2)ccc1O	-10	19	103	103
54	CC(C)CNC(=O)CCc1nc(-c2ccccc2)no1	1	32	101	105
55	CCOC(=O)c1ncn2c1C(=O)OC2(C)C	7	x	91	94
56	Cc1cccc(NC(=O)CSc2nnc(-c3ccoc3C)n2CC(C)C)c1C	9	-1	102	102
57	CC(C(=O)OCC(=O)n1c2c(c3ccccc31)CCCC2)N1C(=O)c2ccccc2C1=O (stereo unspecified)	6	-3	102	103
58	CC(=O)Nc1ccc(NC(=O)C(C)OC(=O)c2ccc(S(=O)(=O)N3CCCCC3)cc2)cc1 (stereo unspecified)	-14	-14	105	107
59	CCCC(C(=O)NC1=NCCS1)c1ccccc1 (stereo unspecified)	-21	3	100	103
60	S=C(NCc1ccccc1)NCc1ccccn1	-5	-14	104	102
61	CC1CCCC(C)N1CC(=O)O (stereo unspecified)	-67	-4	102	101
62	O=C(CSc1ncnc2c1oc1ccccc12)OCc1c(F)cccc1Cl	-6	0	108	115
63	N#C/C(=C\N1CCN(c2ccccc2)CC1)S(=O)(=O)c1ccc(F)cc1	-17	-8	103	100
64	O=C1C(=Nc2ccc(Cl)cc2)c2ccccc2N1CN1CCc2ccccc2C1	-5	x	107	113
65	CC(NCC1COc2ccccc2O1)C(=O)Nc1ccc(S(N)(=O)=O)cc1 (stereo unspecified)	-21	-3	114	111
66	COC(=O)CSc1nc(C)nc2scc(-c3cccs3)c12	-6	-6	105	104
67	CC(C)NCC(=O)Nc1ccc(-c2ccccc2)cc1	-33	-7	104	100
68	Cc1ccsc1C(=O)Oc1ccc(F)cc1	x	-11	102	109
69	CCOc1ccccc1C(=O)N(C)c1ccccc1	-1	-13	101	105
70	Cn1c(=O)c2nc3ccc(N=Cc4c(O)n(Cc5ccccc5)c(=O)[nH]c4=O)cc3nc2n(C)c1=O	-35	-8	79	129
71	O=C(Nc1ccc(CN2CCS(=O)(=O)CC2)cc1)c1ccc(Cl)cc1	-2	3	103	106
72	O=C(c1cnn(-c2ccccc2)c1-n1cccc1)N1CCN(c2ccccc2)CC1	-25	-7	103	101
73	Cc1ccc(-n2c(CNC(=O)c3cccs3)nnc2SCC(=O)NO)cc1	2	-13	101	101
74	N#Cc1ccsc1NC(=O)C1CCC1	-18	2	109	125
75	CCN(C(=O)c1cc(S(=O)(=O)N2CCc3ccccc32)cn1C)c1ccccc1	-2	-1	104	97

Continued (two carried over from the part before).
Field names – A = MenB inh; B = MbtI inh; C = PV pol inh; D = PV pol inh intensity
74. N#Cc1ccsc1NC(=O)C1CCC1
  A: -18; B: 2; C: 109; D: 125
75. CCN(C(=O)c1cc(S(=O)(=O)N2CCc3ccccc32)cn1C)c1ccccc1
  A: -2; B: -1; C: 104; D: 97
76. Cc1cccc(N(C)S(=O)(=O)c2ccc(CN3C(=O)c4cccnc4C3=O)cc2)c1
  A: -11; B: -10; C: 104; D: 102
77. O=C(O)c1ccc(Nc2ccnc3cc(Cl)ccc23)cc1
  A: 2; B: -12; C: 103; D: 108
78. CC(C)CNc1nc2ccccc2s1
  A: x; B: -2; C: 98; D: 99
79. COc1ccc(C(=O)N2CCCC2)cc1S(=O)(=O)N1CCCc2ccccc21
  A: -42; B: 4; C: 99; D: 99
80. CSc1nnc(-c2ccccc2NC(=O)/C=C/c2ccccc2)o1
  A: -1; B: 1; C: x; D: x
81. Cc1nc(/C(N)=N/OC(=O)c2cc3c([nH]c4ccccc43)c(C)n2)no1
  A: -31; B: -7; C: 99; D: 101
82. COc1ccccc1C(=O)n1cc(C)cn1
  A: -4; B: 3; C: 101; D: 101
83. CCC(C)CCCCC(=O)NC(CCN)C(=O)NC(C(=O)NC(CCN)C(=O)NC1CCNC(=O)C(C(C)O)NC(=O)C(CCN)NC(=O)C(CCN)NC(=O)C(CC(C)C)NC(=O)C(Cc2ccccc2)NC(=O)C(CCN)NC1=O)C(C)O (stereo unspecified)
  A: -12; B: -13; C: 99; D: 100
84. CCCCNC(=O)c1cn(C)c2ccc(S(=O)(=O)N3CCCCC3)cc2c1=O
  A: 10; B: -2; C: 101; D: 104
85. CC(C)(C)c1ccc(NC(=O)Nc2ccc3c(c2)OCCO3)cc1
  A: 10; B: -12; C: 105; D: 110
86. NCCCOCC1CC1
  A: -1; B: -13; C: 105; D: 111
87. CCC(=O)Nc1nc2c(s1)CSc1ccccc1-2
  A: -11; B: 96*; C: 100; D: 96
88. CNCc1cccc(F)c1
  A: -28; B: -4; C: 106; D: 99
89. CCc1cccc(C)c1NC(=O)c1cccc2c1C(=O)N(Cc1cccnc1)C2
  A: -17; B: 1; C: 101; D: 99
90. COc1ccc(CCNC(=O)c2c(Cl)nc3sccn23)cc1
  A: x; B: -2; C: 102; D: 104

Reformatted as labelled records: two of the compounds above
4. CC1CCC/C(=C/Nc2ccc3c(c2)OCO3)C1=O (stereo unspecified)
  MenB inh = -91
  MbtI inh = -207
  PV pol inh = 103
  PV pol inh intensity = 110
5. CN1/C(=C2/SC(=S)N(N)C2=O)Sc2ccccc21
  MenB inh = 7
  MbtI inh = 8
  PV pol inh = 101
  PV pol inh intensity = 107

A section from the list above:
Field names – A = MenB inh; B = MbtI inh; C = PV pol inh; D = PV pol inh intensity
89. CCc1cccc(C)c1NC(=O)c1cccc2c1C(=O)N(Cc1cccnc1)C2
  A: -17; B: 1; C: 101; D: 99
90. COc1ccc(CCNC(=O)c2c(Cl)nc3sccn23)cc1
  A: x; B: -2; C: 102; D: 104

The results go on:
Field names – A = MenB inh; B = MbtI inh; C = PV pol inh; D = PV pol inh intensity
91. O=C(Cc1c[nH]c2ccccc12)Nc1ccc(F)cc1
  A: -12; B: -1; C: 103; D: 106
92. Cc1ccc(CNCCCn2ccnc2)cc1
  A: -12; B: -6; C: 101; D: 97
93. CCC(CC)c1nnc(NC(=O)c2ccc(OCC(=O)N3CCOCC3)c(OC)c2)s1
  A: -24; B: 28; C: 101; D: 106
94. O=C(O)C1CCCN1c1ncccn1 (stereo unspecified)
  A: -14; B: 0; C: 102; D: 102
95. NS(=O)(=O)c1ccc(NS(=O)(=O)/C=C/c2ccccc2)cc1
  A: -20; B: 14; C: 101; D: 101
96. O=C(/C=C/c1cccs1)Nc1ccc(F)cc1F
  A: x; B: 12; C: 104; D: 104
97. O=C(Oc1ccc(Br)cc1)c1cccnc1
  A: -2; B: -1; C: 98; D: 100
98. COc1ccc(N(Cc2nc3ccccc3s2)S(=O)(=O)c2ccc3c(c2)OCCO3)cc1
  A: -25; B: 0; C: 101; D: 100
99. Cc1nn(-c2ccccc2)c2sc(C(=O)NC3CCS(=O)(=O)C3)cc12 (stereo unspecified)
  A: -6; B: 101; C: 99; D: 108
100. CSCC(=O)Nc1ccc(C)cc1Br
  A: -10; B: 7; C: 102; D: 107
